# PINK1 modulator – changes PINK1 expression. PINK1 immunofluorescence, high-content cytometry, 24 h. actives 0.2% (n = 410,000). AID 624263. Potency, µM (top dose mostly 76.6 µM), inactives show top-dose activation (PINK1 increase), actives largely listed as activators; active = well fitted activation curve with a large enough effect; inconclusive = small, poorly fitted or top-dose-only effect; inactive = flat fitted curve, though single readings scatter; cell line not stated here;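 further: potency means the concentration at half of the fitted maximal effect; % of control where 0% means no effect; nearly all actives have a fitted effect of over 65% in size; a mitochondrial uncoupler was the plate control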
#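 PINK1 protein level read as immunofluorescence by microplate cytometer in a fixed, stained stable cell line after 24 h exposure to five compound concentrations, with CCCP as control.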
# D2 PAM – human D2 receptor positive allosteric modulation; DiscoveRx D2 beta-arrestin cells, luminescence, 90 min; 100% = 57 uM dopamine signal; potentiation, % (test concentration not listed); actives 0.23% (n = 360,000); AID 624464; active = potentiation of 50% or more; inconclusive = 30% to 50%; inactive = 30% or less;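 further: compound concentration not given in the record; tested on top of an EC20 dose of dopamine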
#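 PathHunter beta-arrestin assay in DiscoveRx D2 cells. Compounds were added with an EC20 of dopamine (50 nM final) for 90 min at 37 deg C. Luminescence was read 1 h after detection reagent, with 57 uM dopamine as the EC100 control.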
# CtBP-E1A inh – CtBP/E1A binding inhibition; AlphaScreen GST-E1A/His-CtBP binding, 1536-well; hits give low values; control for the full effect not named in the record; activity change, % (concentration not given with the values); actives 0.49% (n = 340,000); AID 651724; in the data active means activity change below about -65%; inconclusive means about -30% to -65%; inactive means above about -30%; further: on the % scale 0 is the no-effect control and ±100 the full control effect
#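 In 5 uL wells, 23 nL compound meets equimolar GST-E1A and His-CtBP (5X stock 125 nM each) for 2 h, 37 °C. Beads (5X, 50 ug/mL) then 1 h, 37 °C, dark.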
# Six1-Eya2 blk – blocks human Six1 binding to Eya2; Q15475+O00167; AID 651725; AlphaScreen GST-Six1/His-Eya2 binding, biochemical; hits give low values; control for the full effect not named in the record; activity change, % (concentration not given with the values); actives 0.56% (n = 360,000); in the data active = activity change below about -65%; inconclusive = about -30% to -65%; inactive = above about -30%; further: on the % scale 0 is the no-effect control and ±100 the full control effect
# Target sequence (O00167 whole entry, looked up): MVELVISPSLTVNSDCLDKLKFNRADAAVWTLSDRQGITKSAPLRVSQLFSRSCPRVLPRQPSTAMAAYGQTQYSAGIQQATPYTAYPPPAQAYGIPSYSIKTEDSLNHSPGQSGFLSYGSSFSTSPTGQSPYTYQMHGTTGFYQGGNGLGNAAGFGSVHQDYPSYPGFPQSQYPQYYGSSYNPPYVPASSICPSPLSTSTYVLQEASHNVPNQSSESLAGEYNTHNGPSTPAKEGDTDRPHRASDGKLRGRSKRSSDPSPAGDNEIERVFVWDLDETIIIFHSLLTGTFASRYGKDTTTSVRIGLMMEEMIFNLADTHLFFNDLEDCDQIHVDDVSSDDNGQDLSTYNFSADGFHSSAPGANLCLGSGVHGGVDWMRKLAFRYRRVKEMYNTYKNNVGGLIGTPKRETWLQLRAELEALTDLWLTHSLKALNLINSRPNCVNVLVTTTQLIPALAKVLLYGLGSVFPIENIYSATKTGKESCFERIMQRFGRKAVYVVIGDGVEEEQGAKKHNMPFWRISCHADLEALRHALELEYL
# Target sequence (Q15475 whole entry, looked up): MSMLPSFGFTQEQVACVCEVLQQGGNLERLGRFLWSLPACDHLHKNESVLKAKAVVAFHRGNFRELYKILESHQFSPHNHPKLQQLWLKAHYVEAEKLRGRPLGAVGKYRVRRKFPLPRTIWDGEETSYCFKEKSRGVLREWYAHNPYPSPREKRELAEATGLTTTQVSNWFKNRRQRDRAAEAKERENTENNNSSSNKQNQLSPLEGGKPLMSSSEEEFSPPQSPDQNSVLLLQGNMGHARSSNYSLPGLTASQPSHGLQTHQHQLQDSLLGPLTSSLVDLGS
#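 Homogeneous AlphaScreen proximity assay pairing GST-Six1 with His-tagged Eya2 (added as 5X mix: 250 nM and 500 nM) in 50 mM Tris pH 8.0, 300 mM NaCl, 1 mM TCEP. Glutathione donor and nickel acceptor beads; 1 h, 37 °C, dark.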
# TRPML1 agonist – activates the human TRPML1 channel | TRPML1-expressing cells, Ca2+ dye fluorescence, FDSS; host cell line not named in the record; reference of the full effect not given here | activation, % (test concentration not listed) | actives 0.12% (n = 410,000); in the data active = activation above about 50%; inconclusive = about 30% to 50%; inactive = below about 30%; further: 0% is about no effect; the text of the record puts the active cut at 80%
#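 Kinetic FDSS Ca2+ read in Tet-induced TRPML1-DL cells (ABD Ca8 dye plus quencher, 45-90 min RT loading): baseline, then compound, then 110 s agonist window; EC80 agonist 54-4 at 4uM final added afterwards for a 110 s antagonist window.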
# D2 ag – agonists of human D2 dopamine receptor (beta-arrestin). DiscoveRx PathHunter D2 beta-arrestin, luminescence, 90 min; 100% = 57 uM dopamine signal. P14416. activation, % (no concentration beside the values). actives 0.084% (n = 360,000); in the data active = activation above about 40%; inconclusive = about 15% to 40%; inactive = below about 15%; further: compound concentration not given in the record; the text of the record calls up to 30% inactive
#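 DiscoveRx PathHunter D2 beta-arrestin cells (2,100/well) attached overnight, then compound-stimulated 90 min at 37 C in HBSS/10 mM HEPES/0.1% Tween-20 buffer; beta-galactosidase complementation read by luminescence after 1 h at ambient temperature. Dopamine 57 uM final (EC100) as control.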
# Active calls of the source: *; ? = inconclusive; · = not tested or not shown; & = joins results of further samples; [ ] = another dose, or the depositor's remark.
SMILES,PINK1 modulator,D2 PAM,CtBP-E1A inh,Six1-Eya2 blk,TRPML1 agonist,D2 ag
CC1CC(=O)Nc2ccccc2N1C(=O)COc1ccc2cc(Br)ccc2c1 (stereo unspecified),3.0%,-7,-12,-1,0.2,-0.2
COc1cccc(CNC(=O)C(=O)NCC2OCCCN2S(=O)(=O)c2cc(C)ccc2C)c1 (stereo unspecified),-0.4%,13,-1,-2,2.2,-1.0
COc1cccc(/C=N/NC(=O)COc2cccc3cccnc23)c1O,2.6%,7,-80*,?,-0.2,5.0
CC(=O)N1CCN(C(=O)C(Cc2c[nH]c3ccccc23)NC(=O)c2ccccc2Cl)CC1 (stereo unspecified),1.3%,-2,0,-6,-0.3,-1.1
Nc1ccc2nc3c(=O)n(C4CCCCC4)c(=O)[nH]c3nc2c1,-0.3%,17,-27,?,80*,2.7
CC(C(=O)O)n1c(C(F)(F)F)nc2ccccc21 (stereo unspecified),-0.4%,-10,0,7,-0.3,-2.8
COc1ccc2c(c1OC)C(=O)N1c3ccccc3N=C(c3ccc([N+](=O)[O-])cc3)CC21 (stereo unspecified),-0.2%,?,-1,-3,-0.4,7.5
C[n+]1cc(-c2ccccc2)n2c1CCCCC2,-0.7%[38.3 µM],-2,10,5,0.9,1.8
COc1ccc(C)cc1S(=O)(=O)N(C)CC(=O)N1CCN(C)CC1,3.7%[38.3 µM],-5,5,6,-0.4,-1.1
CCOP(=O)(OCC)C(C#N)=C1SCN(c2ccc(Cl)cc2)CS1,-3.0%,-29,?,?,1.5,-8.6
COc1ccc(-c2nnc3sc(COc4ccccc4)nn23)cc1,-1.4%,2,4,-3,1.4,-0.4
NNC(=S)NC1CCCCCCCCCCC1,3.4%,-15,·,0,0.3,-9.9
CCOc1ccc(NC(=O)C2CCN(S(=O)(=O)c3ccc4c(c3)CC(C)N4C(C)=O)CC2)cc1 (stereo unspecified),13%,1,8,0,-1.0,-9.1
Clc1cccc(Oc2cnns2)c1Cl,2.3%,-12,0,14,-0.3,-1.0
C[C@H](O)[C@@H]1CN2CCc3c([nH]c4ccc(-c5ccc6c(c5)OCO6)cc34)[C@@H]2C[C@@H]1N(C)C(=O)Nc1ccc(F)cc1,0.2%,·,-22,-29,·,2.1
Cc1cn(CC(=O)NCC(C)c2ccccc2)c(=O)[nH]c1=O (stereo unspecified),3.0%,-1,3,5,-1.2,-2.5
CC(=O)Nc1ccc(N/C=C(\C#N)S(=O)(=O)c2ccc(Cl)cc2)cc1,0.7%,0,3,1,0.1,4.8
CC(C)OCCCNC(=O)c1cccc(NC(=O)c2ccccc2)c1,4.7%,5,3,3,1.6,-0.3
COCCn1nnnc1SCC(=O)Nc1ccc2c(c1)OCO2,0.9%,-1,·,3,1.1,-2.5
O=c1[nH]ncc(N/N=C\c2ccncc2)c1Cl,-1.2%,0,-2,-6,-0.2,-3.7
O=c1cn[nH]c2ccc(Br)cc12,-0.7%,-24,11,1,-0.4,-7.0
Cc1ccc(CN2CC(C(=O)NC(c3nc4ccccc4[nH]3)C(C)C)CC2=O)cc1 (stereo unspecified),2.5%,-2,·,-6,-1.2,-0.9
O=C(O)c1cccc(NS(=O)(=O)c2ccc3c4c(cccc24)C(=O)N3)c1,0.0%,-7,-16,-17,-0.1,-2.1
CCc1ccccc1NC(=O)C1CCCN(c2ncnc3onc(-c4ccc(F)cc4)c23)C1 (stereo unspecified),1.1%,-4,·,3,0.8,5.2
CC1CCCN(CCCNC(=O)CN2C(=O)COc3ccc(S(=O)(=O)N4CCOCC4)cc32)C1 (stereo unspecified),-0.1%,-19,-2,2,-0.1,-1.3
Cc1ccc(NC(=O)CSc2nnc(CCCCCNC(=O)OC(C)(C)C)o2)c(C)c1,-3.1%[38.3 µM],-15,1,-1,1.8,-1.5
CN(C)c1ccc2c(c1)C(=NO)c1ccccc1-2,-2.5%,-24,1,-66*,1.7,-5.1
Cc1ccc(OCC(=O)Nc2ccc(S(=O)(=O)N3CCOCC3)cc2)c(C)c1,-0.5%,0,0,-2,3.3,0.2
Cc1ccc2c(c1)C1(OCCO1)C(=O)N2,0.1%,-18,-1,3,0.5,-3.8
CC(C)C(=O)Nc1cccc(NC(=S)NC(=O)C(c2ccccc2)c2ccccc2)c1,6.9%[38.3 µM],1,-9,-6,1.5,-2.2

# Compound profiles, from the list above. Order of values: PINK1 modulator	D2 PAM	CtBP-E1A inh	Six1-Eya2 blk	TRPML1 agonist	D2 ag
# CN(C)c1ccc2c(c1)C(=NO)c1ccccc1-2 is entered as -2.5%	-24	1	-66*	1.7	-5.1
# CC(=O)Nc1ccc(N/C=C(\C#N)S(=O)(=O)c2ccc(Cl)cc2)cc1 is entered as 0.7%	0	3	1	0.1	4.8

# The results go on:
SMILES,PINK1 modulator,D2 PAM,CtBP-E1A inh,Six1-Eya2 blk,TRPML1 agonist,D2 ag
COCCNC(=O)Cn1cc(/C=C(\C#N)C(=O)NC2CCCC2)c2ccccc21,3.4%,-7,·,-1,-0.6,-4.6
CCCOC(=O)c1ccc(NC(=O)c2ccoc2C)cc1,1.4%,-1,0,-1,2.0,-0.7
Cc1ccc(C(=O)N2C(=O)C(c3ccccc3)Oc3ccccc32)cc1 (stereo unspecified),?,-6,0,29,1.7,-1.5
CS(=O)(=O)CC(=O)Nc1ccc2nc3n(c(=O)c2c1)CCCCC3,0.6%,-2,-9,-8,-0.4,-1.0
CCOc1cccc(C2C(C(=O)c3ccco3)=C(O)C(=O)N2c2nnc(C)s2)c1 (stereo unspecified),1.7%,-5,0,-3,18,-9.1
NC(=O)CSc1nnc(-c2ccccn2)n1N,0.5%,-15,·,-6,-0.3,-4.8
Cc1cc(C(=O)N=Nc2c(O)n(C(C)C)c3ccccc23)n[nH]1,0.6%,-30,2,-18,6.7,-8.7
COc1ccc(-c2cn3cccnc3n2)cc1NC(=O)C(C)Oc1ccccc1 (stereo unspecified),-0.4%,-8,-8,0,-1.2,-4.0
COC(=O)c1ccc2c(=O)[nH]c(COC(=O)c3[nH]c(C)c(C(C)=O)c3C)nc2c1,1.6%,-4,-2,3,0.0,3.8
O=C(NC(=S)NC12CC3CC(CC(C3)C1)C2)c1ccc(F)cc1,15%,-8,-29,-3,1.1,-0.6
Cc1cc(F)ccc1NC(=O)Nc1ccc2c(c1)OCO2,3.9%,-9,1,8,-0.7,-3.1
CCOC(=O)N1CCN(CCC(=O)Nc2cc(C)ccc2C)CC1,0.8%&3.4%,-3,0,7,0.2&-0.5,-5.0
CSCC[C@@H](CO)NC(=O)[C@H]1O[C@@H](n2ccc(N)nc2=O)[C@H](O)[C@@H]1O,-1.3%,-9,3,-1,-0.6,-3.0
Cc1c(NC(=O)COC(=O)C(c2ccc(Cl)cc2)C(C)C)c(=O)n(-c2ccccc2)n1C (stereo unspecified),-3.3%,-3,0,-1,0.2,0.4
CCOc1ccc(NC(C)c2cc(Cl)ccc2O)cc1 (stereo unspecified),2.1%,-23,-20,-29,1.4,-5.1

# With a hit mark in Six1-Eya2 blk (from the list above):
canonical_smiles	PINK1 modulator	D2 PAM	CtBP-E1A inh	Six1-Eya2 blk	D2 ag
CN(C)c1ccc2c(c1)C(=NO)c1ccccc1-2	-2.5%	-24	1	-66*	-5.1

# Additional entries
SMILES,PINK1 modulator,D2 PAM,CtBP-E1A inh,Six1-Eya2 blk,TRPML1 agonist,D2 ag
COc1cc(C(=O)NCc2nnc(SCC(=O)NCc3ccccc3)o2)cc(OC)c1OC,-1.3%,-12,-4,-1,0.2,1.3
O=c1cc(O)nc(SCc2ccc(Cl)cc2)[nH]1,-0.4%,-2,-16,-6,3.3,-1.4
O=C1NCCOC(=O)[C@H](Cc2ccc(F)cc2)C/C=C\C[C@H]1CC(=O)N(CCO)Cc1ccccc1,-0.3%,·,0,3,0.3,-2.1
O=C(COC(=O)CN1C(=O)C2CCCCC2C1=O)NCc1ccc(Cl)cc1Cl (stereo unspecified),0.8%,-4,3,8,0.1,-5.9
O=C(Nc1nccs1)c1ccc(-c2ccc([N+](=O)[O-])cc2)o1,35µM*,1,-16,-12,0.6,-2.9
Cc1cccc(C)c1NC(=O)Nc1ccc2c(c1)OCO2,2.0%,-10,0,8,-0.7,-2.2
Cc1c(NC(=O)C(C)OC(=O)c2cc3c4ccccc4n(C)c3s2)c(=O)n(-c2ccccc2)n1C (stereo unspecified),2.5%,-3,0,-1,-1.4,-5.3
Cc1ccc(C(=O)CC2SC(N)=NC2=O)cc1 (stereo unspecified),0.9%[38.3 µM],2,1,-1,0.2,1.2
C=C(C)C1Cc2c(C)nn(-c3cccc4ccccc34)c2C1 (stereo unspecified),12%,-21,20,11,-1.2,-3.8
COc1cccc(CCNC(=O)c2cccc(NC(=O)C3=C(C)OCCS3)c2)c1,2.6%,-8,·,-12,4.7,0.2
COc1ccc(-c2nc3c(-c4ccc(Cl)cc4)cnn3cc2C)cc1F,9.4%,2,-3,12,-0.4,-0.7
OC(CN1C2=NCCCN2c2ccccc21)c1ccc(Br)cc1 (stereo unspecified),8.7%,-19,6,0,-0.2,-3.5
CCOC(=O)Cc1ncccc1C(=O)Nc1ccc(Oc2ccccc2)cc1,-1.9%,-34,0,0,1.9,-5.3
C#CCNC(=O)c1csc([C@@H]2O[C@H](CO)[C@@H](O)[C@H]2O)n1,1.3%,0,0,4,-0.2,-4.4
Cc1csc(NC(=O)CCCNC(=O)c2ccc(Cl)cc2)n1,-0.9%,-1,3,6,-0.1,-3.4
COc1cccc(NC(=O)Cn2nnc(-c3ccccc3N)n2)c1,0.2%[38.3 µM],-11,8,-7,-0.5,0.5
COc1ccc(C(=O)C(=NNc2ccccc2)c2ccc(OC)cc2)cc1,-1.6%,-6,?,?,2.3,-2.6
Cc1ccc(CN2CC[C@H]3C=CCc4cccc(c43)C2)cc1,24%,-18,-9,-12,1.1,7.1
COc1ccc(NC(=O)CSc2ncccn2)cc1S(=O)(=O)N1CCCCC1,-0.6%,-7,-20,-1,0.0,0.8
O=C(COC(=O)/C=C/c1ccc(Br)o1)Nc1cccc(S(=O)(=O)N2CCOCC2)c1,5.5%,-6,-5,-9,0.9,0.8
COCCCNC(=O)CN1C(=O)COc2ccc(S(=O)(=O)N3CC(C)CC(C)C3)cc21 (stereo unspecified),1.4%,-3,10,4,-0.9,-2.6
CC(=O)N1N=C(c2cccc([N+](=O)[O-])c2)OC1(C)CC(=O)Nc1ccccc1 (stereo unspecified),0.7%,14,8,-1,-0.3,-0.7
O=C1CC(Nc2ccc(N3CCOCC3)cc2)C(=O)N1Cc1ccccc1 (stereo unspecified),3.8%[38.3 µM],2,-8,-12,-0.1,2.0

# Looked up above.
# COc1ccc(NC(=O)CSc2ncccn2)cc1S(=O)(=O)N1CCCCC1 in PINK1 modulator has -0.6%
# COCCCNC(=O)CN1C(=O)COc2ccc(S(=O)(=O)N3CC(C)CC(C)C3)cc21 (stereo unspecified) in D2 PAM has -3
# O=C(COC(=O)/C=C/c1ccc(Br)o1)Nc1cccc(S(=O)(=O)N2CCOCC2)c1 in Six1-Eya2 blk has -9
# O=C1CC(Nc2ccc(N3CCOCC3)cc2)C(=O)N1Cc1ccccc1 (stereo unspecified) in CtBP-E1A inh has -8
# CC(=O)N1N=C(c2cccc([N+](=O)[O-])c2)OC1(C)CC(=O)Nc1ccccc1 (stereo unspecified) in CtBP-E1A inh has 8

# Screens (PubChem)
